Screening results: PubChem BioAssay, National Center for Advancing Translational Sciences (NCATS)
D2 PAM – positive allosteric modulators of human D2 dopamine receptor; hit rate 0.23% among 360,000; P14416; potentiation, % (test concentration not listed); DiscoveRx D2 beta-arrestin cells, luminescence, 90 min; 100% = 57 uM dopamine signal; AID 624464; active = potentiation of 50% or more; inconclusive = 30% to 50%; inactive = 30% or less;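 also: compound concentration not given in the record; tested on top of an EC20 dose of dopamine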
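D2 cells co-treated with compound plus 50 nM dopamine (EC20) for 90 min at 37 deg C to detect potentiation. Beta-arrestin recruitment was read as enzyme-fragment luminescence after 1 h at ambient temperature. Full response was set by 57 uM dopamine.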
D2 ag – human D2 receptor agonism in beta-arrestin assay. P14416. DiscoveRx PathHunter D2 beta-arrestin, luminescence, 90 min; 100% = 57 uM dopamine signal. activation, % (no concentration beside the values). hit rate 0.084% among 360,000; in the data active = activation above about 40%; inconclusive = about 15% to 40%; inactive = below about 15%; also: compound concentration not given in the record; the text of the record calls up to 30% inactive
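Agonist mode: compounds alone added to overnight-plated D2 PathHunter cells for 90 min at 37 C, with 57 uM final dopamine (EC100) defining full response. Beta-arrestin recruitment detected by chemiluminescent reagent, read after 1 h at ambient temperature.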
Six1-Eya2 blk – blocks human Six1 binding to Eya2 | Q15475+O00167 | AlphaScreen GST-Six1/His-Eya2 binding, biochemical; active compounds read low; control for the full effect not named in the record | activity change, % (concentration not given with the values) | hit rate 0.56% among 360,000 | AID 651725; in the data active = activity change below about -65%; inconclusive = about -30% to -65%; inactive = above about -30%; also: % is scaled to controls: 0 for no effect and ±100 for the full control effect
Target sequence (O00167 whole entry, looked up): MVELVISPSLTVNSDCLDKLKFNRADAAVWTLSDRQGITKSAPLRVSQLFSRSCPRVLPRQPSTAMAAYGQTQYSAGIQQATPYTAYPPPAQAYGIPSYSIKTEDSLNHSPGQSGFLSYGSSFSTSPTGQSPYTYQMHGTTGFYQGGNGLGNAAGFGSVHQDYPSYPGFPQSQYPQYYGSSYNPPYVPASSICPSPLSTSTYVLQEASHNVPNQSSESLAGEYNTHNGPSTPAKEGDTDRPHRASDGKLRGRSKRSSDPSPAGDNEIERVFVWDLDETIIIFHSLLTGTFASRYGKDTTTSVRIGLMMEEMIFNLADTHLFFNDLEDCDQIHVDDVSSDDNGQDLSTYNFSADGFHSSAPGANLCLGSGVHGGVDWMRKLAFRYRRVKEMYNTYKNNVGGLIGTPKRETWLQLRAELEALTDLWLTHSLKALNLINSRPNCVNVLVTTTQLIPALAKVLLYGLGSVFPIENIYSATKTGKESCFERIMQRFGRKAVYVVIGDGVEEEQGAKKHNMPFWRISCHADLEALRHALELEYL
Target sequence (Q15475 whole entry, looked up): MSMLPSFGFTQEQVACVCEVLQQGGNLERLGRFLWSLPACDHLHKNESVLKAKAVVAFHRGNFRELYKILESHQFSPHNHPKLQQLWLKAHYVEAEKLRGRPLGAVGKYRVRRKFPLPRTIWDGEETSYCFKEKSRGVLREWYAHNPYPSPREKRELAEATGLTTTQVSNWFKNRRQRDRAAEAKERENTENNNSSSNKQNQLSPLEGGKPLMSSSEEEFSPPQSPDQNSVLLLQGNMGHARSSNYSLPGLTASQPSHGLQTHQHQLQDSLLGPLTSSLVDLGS
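AlphaScreen luminescence read after one hour at 37 °C in darkness. Pin-transferred compounds met GST-Six1 and His-Eya2 protein (5X stock 250 nM/500 nM) plus glutathione donor and Ni-chelate acceptor beads (5X, 50 ug/mL).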
PINK1 modulator – PINK1 expression modulation | PINK1 immunofluorescence, high-content cytometry, 24 h | Potency, µM (doses to about 76.6 µM), for the others: at the highest dose activation (PINK1 increase), usual class: activators | hit rate 0.2% among 410,000; active = well fitted activation curve with a large enough effect; inconclusive = small, poorly fitted or top-dose-only effect; inactive = flat fitted curve, though single readings scatter; cell line not stated here;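 also: potency is read from the fitted curve at half-maximal effect; % of control where 0% means no effect; nearly all actives have a fitted effect of over 65% in size; a mitochondrial uncoupler was the plate control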
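Stable cell line treated 24 h with compounds at 5 concentrations (CCCP controls), then fixed and immunostained for PINK1 plus nuclear and cell stains; PINK1 immunofluorescence quantified by laser-scanning microplate cytometry.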
TRPML1 agonist – activates the human TRPML1 channel; Q9GZU1; TRPML1-expressing cells, Ca2+ dye fluorescence, FDSS; host cell line not named in the record; reference of the full effect not given here; activation, % (test concentration not listed); hit rate 0.12% among 410,000; AID 624414; in the data active = activation above about 50%; inconclusive = about 30% to 50%; inactive = below about 30%; also: 0% is about no effect; the text of the record puts the active cut at 80%
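Agonist activity was taken from a 110 s kinetic Ca2+ dye read on the FDSS after pinning compounds onto TRPML1-DL cells. The cells were seeded at 1,500/well with Tet inducer, incubated about 16 h, then dye-loaded at room temperature.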
CtBP-E1A inh – CtBP/E1A binding inhibition | hit rate 0.49% among 340,000 | activity change, % (test concentration not listed) | AlphaScreen GST-E1A/His-CtBP binding, 1536-well; active compounds read low; control for the full effect not named in the record | AID 651724; in the data active means activity change below about -65%; inconclusive means about -30% to -65%; inactive means above about -30%; also: % is scaled to controls: 0 for no effect and ±100 for the full control effect
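GST-E1A and His-tagged CtBP (125 nM each as 5X stock) were preincubated with pin-transferred compound for 2 h at 37 °C in the dark, then glutathione donor and nickel acceptor beads were added for 1 h before AlphaScreen reading.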
Active calls of the source: *; ? = inconclusive; . = no result given; [ ] = dose if it differs, or a comment. Only part of the results is shown; count on the stated rates, not on these rows.

Values run as follows: D2 PAM, D2 ag, Six1-Eya2 blk, PINK1 modulator, TRPML1 agonist, CtBP-E1A inh
1. CCC1(CCc2ccncc2)C(=O)NC(=O)NC1=O
    -11, -0.9, 2, 2.9%, -0.3, 3
2. C[n+]1c(-c2ccccc2)cc(CCCCc2cc(-c3ccccc3)[n+](C)c(-c3ccccc3)c2)cc1-c1ccccc1
    -18, -2.2, 4, 32µM*, 0.4, -2
3. CN(C)CCSC1c2ccccc2CSc2ccccc21 (stereo unspecified)
    -21, -5.9, -19, 6.5%, 1.0, -20
4. COc1ccc(Cn2c(O)c(/C=N/NC(=O)c3ccccc3)c(=O)[nH]c2=O)cc1
    -3, -11, ?, -1.1%, -0.1, -85*
5. CCCCc1ccc(NC2=NCCCS2)cc1
    -7, 0.5, 6, 0.3%, 1.3, 6
6. O=P(Oc1ccccc1)(N1CCOCC1)N1CCOCC1
    -3, 0.6, -4, -1.6%, 2.3, -15
7. CC[C@@]1(O)C(=O)OCc2c1cc1n(c2=O)Cc2cc3c(NC(=O)CN)cccc3nc2-1
    -5, -0.9, -1, -1.5%, -0.7, -1
8. CC(C)N1CCN(Cc2cccc([N+](=O)[O-])c2)CC1
    -8, -3.0, 1, -0.4%, -0.1, 8
9. CC(=O)Nc1nc(CCl)cs1
    4, 1.9, -7, -2.6%, -0.4, 2
10. COCCCn1c(N)c(C(=O)NCc2ccco2)c2nc3ccccc3nc21
    -5, -0.2, ?, 1.3%, 0.2, ?
11. CCCC/C(=N/O)c1c(C)[nH]c2ccccc12
    -19, -7.2, 12, 0.7%, -0.3, -2
12. CCOP(=O)(OCC)C(NC(=O)c1ccccc1)C(Cl)(Cl)Cl (stereo unspecified)
    -2, 2.0, 17, 0.7%, 0.5, 1
13. O=P(Oc1ccccc1)(Oc1ccccc1)N1CCOCC1
    -8, 0.2, 3, 0.0%, 0.0, 4
14. Brc1ccc2c(c1)CN(CC1CCCCC1)Cc1cnnn1-2
    -2, -2.4, 3, -0.1%, -0.6, 4
15. O=c1[nH]c(=S)n(C2CC2)c(O)c1C=NCc1ccc(F)cc1
    -6, -3.1, 1, 0.5%, 1.9, -12
16. COc1cc(O)cc2c1C(=O)OC(C)CCCC(=O)CCC/C=C\2 (stereo unspecified)
    3, -6.9, -7, -1.1%, -0.9, 0
17. COc1cccc(-n2c(=S)[nH]c3ccccc3c2=O)c1
    -6, 3.2, -19, -2.0%, -0.6, -20
18. COc1ccc(-n2nnnc2C(CCc2ccccc2)N2CCC(n3c(=O)[nH]c4ccccc43)CC2)cc1 (stereo unspecified)
    27, ., -21, 5.5%, 1.0, -18
19. CC(=O)OC1N=C(c2ccccc2)c2cc(C)ccc2NC1=O (stereo unspecified)
    3, -4.0, -2, 1.4%, -0.9, 7
20. COc1cc(C=C2C(=O)NC(=O)NC2=O)ccc1O
    -36, -1.3, 2, 1.3%, 3.1, .

(further entries)
Values run as follows: D2 PAM, D2 ag, Six1-Eya2 blk, PINK1 modulator, TRPML1 agonist, CtBP-E1A inh
21. CCC(C)N1C(=O)/C(=C\c2cnc(N(C)C)nc2)C(=O)NC1=S (stereo unspecified)
    -11, -3.8, 3, -1.6%, 0.2, 16
22. CC1=C2C(=O)C3C(CC=C4CC(OC5OC(O)C(O)C(O)C5CO)CCC43C)C2CCC12OC1CC(C)CNC1C2C (stereo unspecified)
    -3, -1.8, 5, 9.5%, 1.0, 2
23. COc1ccc(C2C(C#N)=C(N)Oc3c2c(=O)oc2ccccc32)cc1Cn1cc([N+](=O)[O-])cn1 (stereo unspecified)
    -11, -1.3, -7, -1.5%, 0.6, 0
24. C=CCn1c(O)c(C(CC)=NCCc2c[nH]c3ccccc23)c(=O)[nH]c1=O
    -2, -1.9, -3, 4.2%, -0.1, -4
25. COc1cc2c(C(=O)N3CCN(C)CC3)c(C)n(C)c2cc1Br
    -14, -1.3, -3, -0.5%, 0.4, -6
26. COc1ccc(Br)cc1CN1CCN(C(=O)Cc2ccccc2)CC1
    -34, -7.8, -12, -0.4%, 0.2, -6
27. CCCc1cc(=O)oc2cc(OCC(=O)N3C[C@H]4C[C@@H](C3)c3cccc(=O)n3C4)ccc12
    -7, 4.0, -3, -0.1%, ., 0
28. Cc1cccc(NP2(=O)NCCCN2)c1
    -4, -4.7, -2, 0.2%, -0.1, -11
29. Cc1cc(C(=O)CS(=O)(=O)c2ccccc2)cc(C)c1OC(=O)N(C)C
    -1, -0.3, 0, 1.3%, -0.4, 5
30. CC(=CCOc1ccc2ccc(=O)oc2c1)C1=CC(=O)C(C)(C)O1
    -12, -3.3, -4, 0.0%, -0.6, 2
31. Cc1ccc(N2C(=O)/C(=C/N3CCN(C(=O)c4ccco4)CC3)C(=O)NC2=S)cc1C
    -4, 2.9, -1, -0.5%, -0.4, -4
32. COC(=O)C(O)(c1ccc(N(C)C(=O)COc2ccccc2)cc1)C(F)(F)F (stereo unspecified)
    -11, -2.7, 5, 1.4%, 0.2, 8
33. CC(=O)N1CC(=O)Nc2ccc(C)cc2C1c1ccccc1 (stereo unspecified)
    0, -1.0, 7, 2.4%, 0.4, 5
34. Cn1c(O)c(C=Nc2ccc(Cl)cc2)c(=O)n(C)c1=O
    -6, -1.9, 0, -0.3%, -0.5, 2
35. O=C(c1cc(-c2cccnc2)nc2ccccc12)N1CCC2(CC1)OCCO2
    -10, -1.3, 2, 4.2%[38.3 µM], 0.3, 4
36. Cc1ccc(/C=C2\C(=O)NC(=S)N(c3ccc(F)cc3)C2=O)o1
    -31, -5.1, 6, -0.3%, 1.0, .
37. O=c1[nH]c(O)c(N=Nc2ccc3c(c2)OCCO3)c(=O)[nH]1
    -9, -3.9, -5, 0.2%, 0.1, -6
38. CCN(CC)c1ccccc1
    2, -3.6, -1, 0.8%, -0.6, 0
39. Cc1sc2c(c1C)C(c1cccs1)=NCC(=O)N2CC(=O)NCc1cccs1
    -4, 0.4, 7, ., 0.3, 53
40. CCC/C(=N\O)c1c[nH]c2ccccc12
    1, -0.4, -3, -0.2%, 1.5, 1

The list continues.
| # | compound | D2 PAM | D2 ag | Six1-Eya2 blk | PINK1 modulator | TRPML1 agonist | CtBP-E1A inh |
| --- | --- | --- | --- | --- | --- | --- | --- |
| 41 | O=Cc1c(C(=O)O)n(Cc2ccccc2Cl)c2ccccc12 | -12 | -1.2 | 7 | 0.3% | 0.2 | 8 |
| 42 | CN(C)c1ccc(/C=C2\C(=O)NC(=O)N(Cc3ccc(F)cc3)C2=O)cc1 | -1 | 6.9 | 10 | 4.9% | 0.3 | 6 |
| 43 | CCC1(CC(C)C)C(=O)NC(=S)NC1=O | -25 | -0.5 | 1 | -2.5% | -0.5 | 13 |
| 44 | CC(C)c1ccc(C(c2c(O)c3ccccc3oc2=O)c2c(O)c3ccccc3oc2=O)cc1 | -1 | -2.3 | -21 | ? | 1.3 | 3 |
| 45 | Cc1ccc(NC(=O)c2cc(-c3ccccc3)n(CCCN3CCOCC3)c2C)cc1 | -7 | -7.4 | 7 | -0.5% | -0.6 | -5 |
| 46 | O=[N+]([O-])/C=C/c1c(Cl)cccc1Cl | -5 | -6.7 | -7 | -7.2% | 1.7 | -2 |
| 47 | COC(=O)C1=C(c2ccc(OC)c(OC)c2)C[C@@H]2CC[C@H]1N2C(=O)NCc1cccc2ccccc12 | -20 | -2.9 | 7 | -0.3% | -0.1 | -3 |
| 48 | CCc1ccc(C2=NN(CCC(=O)N3CCC4(CC3)OCCO4)C(=O)CC2)cc1 | -3 | -2.4 | -12 | -0.9% | 0.0 | 1 |
| 49 | CN(C)/C=C1/C(=O)NC(=O)N(CCNc2ncc(C(F)(F)F)cc2Cl)C1=O | -9 | -3.9 | 8 | -0.4% | -0.2 | 1 |
| 50 | CCc1cc(=O)oc2cc(C)cc(OCC(=O)N3CCC(C(=O)O)(c4ccccc4)CC3)c12 | -22 | 1.7 | 1 | 1.7% | . | 5 |
| 51 | O=C(c1cc(C(=O)NCc2ccc(Cl)cc2)c(=O)n(Cc2ccc(Cl)cc2)c1)c1cc(F)ccc1O | 7 | 2.5 | 1 | 1.8% | -0.2 | -12 |
| 52 | CCOC(=O)c1ccc(N=Cc2c(O)n(-c3ccccc3F)c(=S)[nH]c2=O)cc1 | -6 | -5.1 | -6 | 8.2% | 0.0 | 5 |
| 53 | COC(=O)C(O)(c1ccc(N(C)C(=O)c2cccs2)cc1)C(F)(F)F (stereo unspecified) | -4 | 2.2 | 17 | 0.5% | -0.4 | -13 |
| 54 | C=CCN1Cc2ccccc2-n2nncc2C1 | -5 | -4.6 | 11 | -1.4% | -0.4 | 3 |
| 55 | COc1ccc(C2NCc3ccc4c(c3-n3cccc32)OCO4)cc1OC (stereo unspecified) | -13 | -2.6 | -18 | 2.0% | 0.9 | -7 |

More records follow:
| # | compound | D2 PAM | D2 ag | Six1-Eya2 blk | PINK1 modulator | TRPML1 agonist | CtBP-E1A inh |
| --- | --- | --- | --- | --- | --- | --- | --- |
| 56 | CCN(CC)C(=O)c1ccc(NC(=O)c2sccc2-c2ccccc2)cc1 | -13 | 0.1 | 0 | -0.4% | -0.2 | 2 |
| 57 | CCc1ccc(/C=C(/C#N)C(N)=S)cc1 | -11 | -4.7 | -2 | 16% | 1.4 | 2 |
| 58 | COc1ccc(-n2c(-c3ccccc3Br)nc3ccccc3c2=O)cc1 | 1 | -2.2 | 2 | 6.4% | 2.4 | -1 |
| 59 | C/C=C1\CN2[C@H]3C[C@@]45c6ccccc6N(C)[C@H]4[C@@H]2CC1C3[C@H]5O (stereo partly specified) | -66 | -1.9 | 5 | -0.4% | . | 10 |
| 60 | C[N+]1(C)C2CCC1CC(OC(=O)c1c[nH]c3ccccc13)C2 (stereo unspecified) | -3 | 0.9 | -3 | 1.4% | -0.4 | 2 |
| 61 | CCOC(=O)c1cccc([P+](=O)O)c1 | -9 | -1.0 | 5 | 1.5% | -0.3 | 8 |
| 62 | COc1ccc(-c2ccc3c(c2)CN(C(=O)NC2CCCCC2)Cc2cnnn2-3)cc1 | 3 | -5.0 | -5 | 2.3% | 0.3 | -2 |
| 63 | COc1ccc(NP2(=O)OCC(C)(N)CO2)cc1 (stereo unspecified) | -14 | 2.7 | 7 | -4.7% | 0.0 | 7 |
| 64 | O=C(C[N+]12CCC(CC1)C(OC(=O)c1ccccc1)C2)c1ccc([N+](=O)[O-])cc1 (stereo unspecified) | -2 | 0.3 | -2 | 0.3% | 3.4 | -11 |

Fetched by structure from above (3):
| # | compound | D2 PAM | D2 ag | Six1-Eya2 blk | PINK1 modulator | TRPML1 agonist | CtBP-E1A inh |
| --- | --- | --- | --- | --- | --- | --- | --- |
| 59 | C/C=C1\CN2[C@H]3C[C@@]45c6ccccc6N(C)[C@H]4[C@@H]2CC1C3[C@H]5O (stereo partly specified) | -66 | -1.9 | 5 | -0.4% | . | 10 |
| 62 | COc1ccc(-c2ccc3c(c2)CN(C(=O)NC2CCCCC2)Cc2cnnn2-3)cc1 | 3 | -5.0 | -5 | 2.3% | 0.3 | -2 |
| 64 | O=C(C[N+]12CCC(CC1)C(OC(=O)c1ccccc1)C2)c1ccc([N+](=O)[O-])cc1 (stereo unspecified) | -2 | 0.3 | -2 | 0.3% | 3.4 | -11 |
